# S aureus helic – inhibitors of S. aureus replicative helicase, primary screen, biochemical, fluorescence unwinding readout; AID 485395, 2010; inhibition, %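 (tested at about 80 µM)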; 120,000 compounds, 0.05% hits; replicative DNA helicase (DnaC/DnaB), Staphylococcus aureus; purified S. aureus helicase, fluorescence unwinding assay; about half of the hits fall short of the stated cut;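 active = both duplicates at 50% or more, or one of them with a favoured structure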;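 also: 0% = mean of negative control wells and 100% = mean of positive control wells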
# MgrA DNA FP – S. aureus MgrA activity modulators, primary screen, biochemical, S. aureus Newman, fluorescence polarization; MgrA-DNA binding; inhibition, %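 (about 10 µg/mL by stock and volumes)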; 84,000 compounds, 0.13% hits; AID 602314, 2012;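 active = above 50% in either of two replicates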;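 also: 0% = protein plus DNA without compound and 100% = DNA alone without protein; higher means less MgrA bound to DNA so lower polarization; one replicate is shown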
# The depositor's hits bear a star; . = not tested or not shown; & = joins results of further samples. These rows are one share of the data; the hit share may differ from the screen's.
SMILES,S aureus helic,MgrA DNA FP
CSCCC(C(=O)O)n1c(O)c(/C=C2\C=Nc3ccccc32)sc1=S (stereo not drawn),-52,.
CCOC(=O)CN1CCN(c2ccc(F)cc2)CC1,17,-0.8
O=C(O)CCC(=O)NCc1ccc2[nH]c3c(c2c1)CCCC3,16,.
CCN(CC)C(=O)NCCN1C(=O)C2C3C=CC(C3)C2C1=O (stereo not drawn),36,.
CCOCC(=O)Nc1ccc(C#N)cc1,3,0.2
CCc1ccc2nc(NC3=NCN(Cc4ccccc4)CN3)nc(C)c2c1,14,.
CN(C)CCC=C1c2ccccc2C=Cc2ccccc21,.,-0.3&-0.6
O=C(c1ccc(F)cc1)N1c2ccccc2C=Cc2ccccc21,-15,-1.4
O=C1NC(C2CCCCC2)Nc2ccccc21 (stereo not drawn),-20,.
COCCn1cnc2c1c(=O)n(Cc1ccc(C#N)cc1)c(=O)n2Cc1ccccc1,-7,.
N#Cc1cc2c(N)c(C(=O)c3ccccc3)sc2nc1N,.,4.3
CC(=O)Nc1nc2nccc(C)n2n1,16,.
O=C(O)c1cccc(CSc2ncn[nH]2)c1,14,.
CCN(CC)C(=O)Cn1c(S(=O)(=O)Cc2ccccc2)nc2ccccc21,7,1.5
NC(=O)CN1/C(=C(/O)c2ccccc2)C(=O)c2ccccc2S1(=O)=O,-31,.
CCOC(=O)CSc1nc2cc(OC)c(OC)cc2c2nc(CCn3c(C)nc4ccccc43)nn12,1,.
CC(C)NC(=S)NCc1cccs1,1,-1.6
COc1ccc(NC(=O)c2ccccc2NC(=O)c2ccccc2)cc1,.,0.2
NC(=O)Nc1nc2cc(Cl)cc(Cl)c2[nH]c1=O,9,-0.4
Cc1cc(C)c(C)c(S(=O)(=O)N2CC(O)CC2C(=O)O)c1C (stereo not drawn),-2,.
CCC1SC(CC)C(=O)N(CC(=O)NCc2ccc(F)cc2)C1=O (stereo not drawn),1,.
CN(C)S(=O)(=O)Nc1cccc(N)c1,13,4.8
C=CCn1nc2sc3ccccc3n2c(=O)c1=O,.,-0.7
O=C(Nc1ccccc1C(=O)O)c1cc2ccccc2c(=O)o1,44,.
O=C1c2ccccc2C(=O)N1Cc1ccco1,-41,.
N/C(Cc1cc(Cl)cc(Cl)c1)=N\O,.,-3.0
Cc1cc(CN2CCC(C)CC2)cc(C)c1O,6,4.2
O=C(O)c1ccccc1C(=O)Nc1ccc2c(c1)OCCO2,8,-0.7
COc1cccc(-c2nc3c(c(SCC(=O)N4CCOCC4)n2)Cc2c(CO)cnc(C)c2O3)c1,22,.
CN(C(=O)C(C)(C)C)c1nnc(C23CC4CC(CC(C4)C2)C3)s1,-23,.
O=C(COc1ccc2c(c1)oc(=O)c1ccccc12)Nc1ccc(F)cc1,1,0.2
O=C(O)CC1(CC(=O)Nc2cc(Cl)cc(Cl)c2)CCCCC1,.,-2.1
CCN(C(=O)CSc1ncc(C#N)c(N)n1)c1ccccc1,0,1.5
CC1=C(C(=O)OCc2ccccc2)C(c2cccc(Oc3ccccc3)c2)NC(=O)N1 (stereo not drawn),.,-0.8
COc1cc(/C=c2\sc3nc4ccccc4n3c2=O)ccc1OCc1ccc(C)cc1,.,4.6
Cc1nn(C)c(C)c1/C=C/C(=O)N1CCCSc2ccccc21,-14,.
CCCSc1nnc2c(n1)-c1cccc3cccc-2c13,14,.
Cc1ccc2nc(CNCc3ccc(S(N)(=O)=O)cc3)cc(=O)n2c1,6,.
CS(=O)(=O)N(CC(=O)N1CCCC1)c1cccc(Cl)c1Cl,6,0.5
CCCCNC(=O)Sc1ccc2ccccc2c1,-8,.
O=C(COn1nnc2ccccc21)N1CCN(c2ccccc2)CC1,-10,.
Cc1ccc(C2OCC3(CO2)COC(c2ccc(C)cc2)OC3)cc1 (stereo not drawn),1,1.9
O=C1Sc2cccc3cccc1c23,23,.
Cc1ccc2nc(Cl)c3cc(C(=O)N(CCN(C)C)Cc4ccco4)sc3c2c1,26,-1.4
COc1ccc2oc(C(=O)OCC(=O)N(C)C)c(C)c2c1,2,.
Cc1nc2sccn2c(=O)c1S(=O)(=O)N1CCc2ccccc21,-3,-0.7
COc1cccc(C(=O)NC2CCSC2=O)c1 (stereo not drawn),8,-2.8
CSc1nc(C)cc(OCCO)n1,11,0.7
Cc1nc(COc2cccc(Cl)c2)sc1-c1ccn[nH]1,.,-1.8
O=S(=O)(c1ccccc1)N1CCN=C1SCc1ccccc1,18,.
# Other entries:
SMILES,S aureus helic,MgrA DNA FP
N/C(CC(=O)Nc1ccc2c(c1)OCCO2)=N\O,2,.
O=C(O)CCN(Cc1ccco1)S(=O)(=O)c1ccc(Cl)cc1,.,3.9
CN(C)/N=C/c1ccc(OC(=O)c2ccccn2)cc1,-15,.
CCCN1C(=O)/C(=C/c2ccc(F)cc2)SC1=S,8,-0.7
COC(=O)C1=CNC=C(C(=O)OC)C1c1cccc2ccccc12,-1,.
O=C(CNc1ccccc1)N/N=C/c1cn(-c2ccccc2)nc1-c1cc2ccccc2o1,-4,.
Oc1ccc2ccccc2c1CNn1cnnc1,-6,-2.5
O=c1[nH]nc(-c2ccc(F)cc2)cc1-c1ccccc1,-10,.
COc1ccc(NC(=O)OCc2ccccc2)cc1OC,6,-0.5
O=C(NCc1ccco1)c1ccc(-n2c(-c3ccccc3)cc3c2CCCC3)cc1,5,.
COc1ccc(OCC(=O)N2CCC(C(N)=O)CC2)cc1,-4,.
N#CCCN(CC1CCCO1)C(=S)NC1CC2C=CC1C2 (stereo not drawn),.,5.2
CCC(Sc1nnnn1-c1ccccc1)C(=O)NC1=NN=C(c2ccc(C)cc2)CS1 (stereo not drawn),10,.
CN(C(=O)c1cccc(F)c1)C(C)(C)C,6,5.3
CCN(CC)C(=O)Oc1c(I)cc(Cl)c2cccnc12,-5,.
COc1ccc(CCN=Cc2cc(Br)ccc2O)cc1OC,.,-0.6
Cc1nn(C)c2ncc3c(=O)[nH]n(C)c3c12,.,0.1
CSc1nc(-c2ccco2)nn1S(C)(=O)=O,7,5.8
Cc1ccc(Cc2c[nH]c(=S)s2)cc1,9,.
CC1=NC2C(C=NN2c2ccccc2)C(SCC(=O)NCCc2ccc(F)cc2)=N1 (stereo not drawn),-10,.
CSc1ncc(C(=O)NCc2ccc(S(N)(=O)=O)cc2)n1-c1ccccc1,-11,.
Cc1cc(-c2nc(C(=O)/C=C/N(C)C)cs2)no1,-14,.
Cc1ccc(C(=O)COC(=O)c2cnccn2)cc1C,4,-2.1
Cc1ccc(CC(=O)c2cccnc2)cc1,.,1.1
CCc1ccc2nc(N3CCC(C(=O)NCc4ccccc4)CC3)sc2c1,8,-1.3
COc1ccc(Cn2nnnc2CN2CCC(NC(=O)c3cccc(OC)c3)CC2)cc1,2,2.4
Cc1cccc(C(=O)OCc2cncs2)c1,.,-0.4
CSc1ccc(NC(=O)N2CCC(N3CCCCC3)CC2)cc1,3,-4.0
COc1cc(OC)cc(C(=O)OCC(=O)Nc2ncccn2)c1,-3,.
CCc1ccc(NC(=O)c2cc3c(=O)[nH]c4ccccc4c3s2)cc1,16,.
Fc1ccc(-c2cn(-c3ccccc3)c(=Nc3ccccc3)s2)cc1F,.,0.3
COC(=O)c1ccc(N=NN2CCCCCC2)cc1,7,-1.4
O=C(CCNc1ccccc1)c1ccc(Cl)s1,.,-3.3
CCCCc1cc(-c2n[nH]c(=S)o2)c2ccccc2n1,15,.
Cc1nc2cc(NC(=O)c3ccc(S(=O)(=O)N(C)c4ccccc4)cc3)ccc2s1,.,0.5
COc1ccc(-n2ccnc2)cc1,3,.
S=c1[nH]nc(C2CCCCC2)o1,3,11
COc1ccc(NC(=S)NC(=O)c2oc3ccccc3c2C)c(OC)c1,6,1.9
CCCCC(O)(c1ccc(N(C)C)cc1)c1ccc(N(C)C)cc1,10,-1.2
Cc1cc(C)n(C(=O)COc2ccccc2)n1,5,-1.4
COc1cc(CN2CCN(C3CCCCCC3)CC2)cc(OC)c1OC,3,-2.5
OC(CN1CCCCCC1)c1ccccc1 (stereo not drawn),-8,-2.0
CCC(=O)N1c2ccc(S(=O)(=O)CCC(=O)N3CCn4c3nc3ccccc34)cc2CC1C (stereo not drawn),1,.
CCOC(=O)c1nc(Nc2cccc(C)c2C)c2ccccc2n1,4,1.0
Cc1ccc2nc(SCC(=O)Nc3cccc(C(F)(F)F)c3)[nH]c2c1,.,3.5
Cn1c2ccccc2c2cnn(CC(=O)NCCc3ccccc3)c(=O)c21,-13,.
CN(C(=O)CN1CCN(S(=O)(=O)c2ccc3c(c2)CCCC3)CC1)C1(C#N)CCCCC1,-5,.
COC(=O)c1ccccc1S(=O)(=O)CC#N,.,3.7
O=C(/C=C/c1ccccc1)OCC(=O)N1CCc2ccccc2C1,1,-2.3
NCCCC(N)CC(=O)NCC1NC(=O)C(CO)NC(=O)C(N)CNC(=O)C(C2CCN=C(N)N2)NC(=O)/C(=C\NC(N)=O)NC1=O (stereo not drawn),.,0.1
# The listing continues:
SMILES,S aureus helic,MgrA DNA FP
c1nc(NC2CCCCC2)c2[nH]cnc2n1,2,-4.1
CCOc1cc(CNc2ncn[nH]2)ccc1OCC(=O)NC(C)(C)C,10,-0.1
COc1cc(/C=C/C(=O)NCCSc2c[nH]c3ccccc23)cc(OC)c1OC,13,0.6
COc1ccccc1CNC(=O)COc1ccccc1,13,-7.1
COC(=O)/C(=C/c1ccccc1)c1ccccc1,.,-6.3
CCn1cc(C(=O)N2CCN(c3ccc(C)cc3)C(C)C2)c2cc(OC)c(OC)cc2c1=O (stereo not drawn),-25,.
OC(Cc1ccccc1)c1ccccc1 (stereo not drawn),15,-3.8
COC(=O)CNC(=O)c1ccc(Cl)cc1,12,4.8
CSc1sc(C#N)c(C)c1C(=O)/C=C/N(C)C,.,-1.0
O=c1nc(N(c2ccccc2)c2ccccc2)[nH]c(=O)[nH]1,-3,3.8
CCOC(=O)c1ccc(NC(N)=S)cc1,.,-0.4
COc1cc(/C=C/C(=O)NCc2ccc3c(c2)OCO3)cc(OC)c1OC,.,-1.3
CCOC(=O)c1cc(C)n(CC(=O)Nc2ccc(C)cc2)c1C,-6,.
O=C(Cc1ccc2c(c1)OCCO2)Nc1ccnn1C1CCCCC1,-7,.
Cc1cccc(OCc2nnc(SCc3nc4ccsc4c(=O)[nH]3)o2)c1,-16,.
COC(=O)c1cc(S(=O)(=O)NCCN(Cc2ccco2)C2CCCC2)cn1C,13,.
CNC(=O)NC(=O)C(Sc1nnc(-c2cc(OC)cc(OC)c2)o1)c1ccccc1 (stereo not drawn),11,.
CCOc1ccc(N2C(=O)NC(=O)/C(=C\c3ccc(OCC(=O)O)c(Br)c3)C2=O)cc1,.,13
Cc1ccc(NC(=O)CN(C)C(=O)c2ccc(Br)o2)cc1,11,.
CCN(CC)c1ncnc2c1sc1nc(C)cc(C)c12,4,-7.2
Cc1nc2sccn2c(=O)c1S(=O)(=O)N(C)C1CCCCC1,-18,1.0
COc1ccc(C(=O)OCC(=O)N(C)C2CCCCC2)cc1,-19,-1.5
O=C(CCn1c(=O)oc2cc(Br)ccc21)NCc1ccco1,-6,4.0
CCCC(C)NS(=O)(=O)Cc1ccccc1 (stereo not drawn),5,-1.9
O=C1CN(c2ccccc2)C(=O)N1,1,3.3
O=C(O)CC1N=C(Nc2nc3ccccc3s2)NC1=O (stereo not drawn),-38,.
Cc1cccc(C)c1N=C(N)N=C(N)N,.,-1.8
CSc1nnc(/N=C/c2c(O)ccc3ccccc23)s1,.,25
CO[C@@H]1[C@@H](OC2OC(C)C(OC3CC(C)(O)C(OC(=O)CC(C)C)C(C)O3)C(N(C)C)C2O)[C@@H](CC=O)C[C@@H](C)[C@@H](O)/C=C/C=C/C[C@@H](C)OC(=O)C[C@H]1OC(C)=O (stereo partly drawn),.,-0.6
COc1ccc(C)cc1S(=O)(=O)NC1CC1,15,-5.0
Cc1ccc(OCCCC(=O)Nc2ccc3c(c2)OCO3)cc1,8,-0.1
CN(C(=O)COC(=O)c1cc2ccccc2cc1O)C1CCCCC1,-7,.

# Compound activity deposited in PubChem by ICCB-Longwood Screening Facility, Harvard Medical School.
